MLL AF4-AF9 inh = blocks AF4 peptide binding to human AF9; AlphaScreen, biotin-AF4 peptide binding to FLAG-AF9; inhibition, % at 10 µM; 0.47% of 350,000 active; P42568;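 active means every replicate reaching a set inhibition limit, whatever the replicate mean, cut at about 25% in these data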;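 further: 0% = plate neutral control median and 100% = total signal loss; the record names both 10 and 1 µM as test concentration; the first replicate is given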
Target sequence (P42568 whole entry, looked up): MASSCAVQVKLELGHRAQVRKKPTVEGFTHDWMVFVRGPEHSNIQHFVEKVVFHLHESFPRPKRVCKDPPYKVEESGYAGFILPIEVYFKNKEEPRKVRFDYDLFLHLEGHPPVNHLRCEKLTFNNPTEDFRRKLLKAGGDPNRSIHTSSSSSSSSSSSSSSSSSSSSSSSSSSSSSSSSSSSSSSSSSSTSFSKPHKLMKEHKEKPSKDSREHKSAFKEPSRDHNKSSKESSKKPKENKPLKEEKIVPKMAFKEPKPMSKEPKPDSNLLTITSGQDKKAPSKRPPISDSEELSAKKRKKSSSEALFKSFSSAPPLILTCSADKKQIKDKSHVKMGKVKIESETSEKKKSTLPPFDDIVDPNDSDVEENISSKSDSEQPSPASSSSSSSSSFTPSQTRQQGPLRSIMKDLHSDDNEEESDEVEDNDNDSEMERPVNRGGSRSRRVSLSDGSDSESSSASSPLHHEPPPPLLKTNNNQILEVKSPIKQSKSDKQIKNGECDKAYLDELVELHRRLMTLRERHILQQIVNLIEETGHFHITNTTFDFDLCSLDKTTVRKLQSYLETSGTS
An asterisk follows results filed as active.

SMILES	MLL AF4-AF9 inh
NC(COCc1ccccc1)c1csc(Nc2cc(Oc3ccccc3)ncn2)n1 (stereo not given)	3.4
C[C@@H]1CN([C@H](C)CO)C(=O)c2cc(NC(=O)CCC(F)(F)F)ccc2O[C@@H]1CN(C)Cc1ccc2c(c1)OCO2	-0.3
C[C@@H]1CN([C@@H](C)CO)C(=O)c2cccc(N(C)C)c2O[C@H]1CN(C)C(=O)Nc1ccc(C(F)(F)F)cc1	-0.7
Cc1ccc(S(=O)(=O)Nc2ccc3c(c2)CC(=O)N([C@H](C)CO)C[C@@H](C)[C@H](CN(C)C(=O)NC2CCCCC2)O3)cc1	-0.8
CN(C)C(=O)C[C@H]1CC[C@H]2[C@H](COc3ccc(NC(=O)c4ccc(F)c(F)c4)cc3C(=O)N2C)O1	0.0
COc1cccc(NC(=O)N2CC3(C2)[C@H](c2ccccc2)[C@@H](CO)N3C(C)=O)c1	0.4
COc1cccc(NC(=O)N2CC(=O)N3[C@H](CO)[C@H](c4ccc(C5=CCCC5)cc4)[C@@H]3C2)c1	1.0
Cc1cccc(S(=O)(=O)N2CCCCN3[C@H](C2)[C@H](c2ccc(C#CC4CC4)cc2)[C@@H]3CO)c1	-3.9
CC=Cc1ccc2n(c1=O)C[C@H]1[C@H](CO)[C@@H](C(=O)NCc3ccccc3)N(C)[C@@H]21 (mixture of isomers)	-2.0
C/C=C/c1cnc2c(c1)C(=O)N([C@H](C)CO)C[C@@H](C)[C@H](CN(C)Cc1ccccc1F)O2	-7.5
C/C=C/c1ccc2c(c1)O[C@@H](CN(C)C(=O)Nc1ccc(F)cc1)[C@H](C)CN([C@@H](C)CO)S2(=O)=O	2.8
Brc1ccc2nc(C3CCCCC3)c(CC3CCCCC3)n2c1	-2.5
O=C(C[C@H]1CC[C@@H]2[C@H](COC[C@H](O)CN2CC2CCCC2)O1)NCC1CC1	-2.9
CO[C@H](CN(C)Cc1ccc2c(c1)OCO2)[C@@H](C)CN(C(=O)Nc1ccc(F)cc1)[C@H](C)CO	2.2
C[C@H](CO)N1C[C@H](C)[C@H](CN(C)S(=O)(=O)c2cn(C)cn2)OCc2ccccc2-c2ccccc2C1=O	-1.3
OCCC#Cc1ccc(N2C(c3ccsc3)=Cc3ccc(F)cc3C2c2c[nH]c3ccccc23)cc1 (stereo not given)	1.4
O=S(=O)(N[C@@H]1CC[C@H](CCn2cc(C3(O)CCCC3)nn2)O[C@@H]1CO)c1ccc(Cl)cc1	-0.6
C[C@@H]1CN([C@H](C)CO)C(=O)Cc2cc(NS(=O)(=O)c3ccc(Cl)cc3)ccc2O[C@@H]1CN(C)C(=O)Nc1ccc(F)cc1	0.6
CC(C)NC(=O)Nc1ccc2c(c1)C(=O)N([C@@H](C)CO)C[C@H](C)[C@@H](CN(C)Cc1ccc(-c3ccccc3)cc1)O2	4.5
COC(=O)C[C@H]1C=C[C@H](NC(=O)Nc2ccccc2)[C@@H](CO)O1	3.5
C[C@H](CO)N1C[C@H](C)[C@H](CN(C)Cc2ccc(-c3ccccc3)cc2)Oc2ccc(NS(=O)(=O)c3ccc(Cl)cc3)cc2C1=O	0.5
CO[C@H]1CN(C)C(=O)c2ccc(NC(=O)c3ccc4c(c3)OCO4)cc2OC[C@H](C)NC[C@@H]1C	-1.7
CC(C)N1CC2(CC(c3ccccc3F)=NO2)CN1C(=O)c1ccc(C(C)(C)C)cc1 (stereo not given)	4.0
COc1ccc(S(=O)(=O)Nc2ccc3c(c2)CC(=O)N([C@H](C)CO)C[C@@H](C)[C@H](CN(C)Cc2ccc(C(F)(F)F)cc2)O3)cc1	-1.7
O=C(Nc1ccccc1F)N1C[C@@H]2[C@H](c3ccccc31)[C@H](CO)N2C(=O)c1ccccc1F	-4.9
C[C@@H]1CN([C@@H](C)CO)C(=O)c2cc(NC(=O)Cn3cnnn3)ccc2O[C@H]1CN(C)S(=O)(=O)c1cccs1	4.7
COc1ccc(C#Cc2ccc3c(c2)[C@H]2[C@H](CCN2C(=O)NC(C)C)[C@H](CO)N3C)cc1	7.4
C[C@H]1CN([C@@H](C)CO)C(=O)c2cc(C#CCN(C)C)cnc2O[C@H]1CN(C)Cc1ccc(C(=O)O)cc1	-14.8
C[C@@H]1CN([C@H](C)CO)C(=O)c2cc(NC(=O)C3CCCCC3)ccc2O[C@@H](C)CCCCO[C@@H]1CN(C)S(=O)(=O)c1cn(C)cn1	3.8
CO[C@H](CN(C)Cc1cc(F)ccc1F)[C@@H](C)CN([C@H](C)CO)S(=O)(=O)c1ccc(C)cc1	-0.4
CCOC(=O)C1=CC[C@@H](c2ccccc2C(F)(F)F)N(S(=O)(=O)c2ccc(C)cc2)[C@H]1c1ccc(C#N)cc1	-4.1
O=C(C[C@@H]1CC[C@@H]2[C@H](COC[C@@H](O)CN2C(=O)CCN2CCCCC2)O1)NCc1ccncc1	-0.4
CCC(=O)N1CC2(C1)[C@H](c1ccccc1)[C@@H](CO)N2S(=O)(=O)Cc1ccccc1	-1.0
O=C(Nc1ccc(F)cc1)N[C@@H]1CC[C@H](CCNC(=O)c2cc(Cl)cc(Cl)c2)O[C@H]1CO	0.1
O=C(C[C@H]1CC[C@H]2[C@@H](COC[C@@H](O)CN2S(=O)(=O)c2ccc(Oc3ccccc3)cc2)O1)NC1CCC1	4.4
O=C(C[C@H]1C[C@H]2c3cc(NS(=O)(=O)c4ccc(F)cc4)ccc3O[C@H]2[C@@H](CO)O1)NCc1ccccc1F	1.1
CCC(=O)N1CCCC1(C)C(=O)Nc1ccc2nc(C)ccc2c1 (stereo not given)	-1.2
CCCNC(=O)N1CC2(CCN(C(C)=O)CC2)c2c(n(C)c3cc(OC)ccc23)[C@H]1CO	2.3
CCOC1=C2[C@@H](CN(S(=O)(=O)c3ccc(C)cc3)[C@H]2c2ccccc2)[C@H]2C(=O)N(Cc3ccccc3)C(=O)[C@H]2C1	-14.1
O=C(NCC[C@H]1CC[C@H](NC(=O)Nc2cc(F)ccc2F)[C@@H](CO)O1)Nc1ccc(F)cc1	18.1
COc1ccccc1S(=O)(=O)N(C)C[C@@H]1OCc2ccccc2-c2ccccc2C(=O)N([C@H](C)CO)C[C@H]1C	4.6
COC(=O)c1ccc(CN2CC(=O)N3[C@@H](CO)[C@@H](c4ccc(-c5ccccc5F)cc4)[C@@H]3C2)cc1	4.6
CCCN(C)C[C@@H]1Oc2ncc(-c3cccc(C#N)c3)cc2C(=O)N([C@H](C)CO)C[C@@H]1C	1.0
O=C(NC[C@@H]1CC[C@@H]2[C@@H](CN2C(=O)NC2CCCC2)O1)c1ccc2c(c1)OCO2	11.9
CCCNC(=O)C[C@H]1CC[C@@H]2[C@H](COC[C@@H](O)CN2Cc2ccccc2F)O1	-5.4
CN1C(=O)c2cc(NC(=O)c3ccc(F)cc3)ccc2OC[C@H]2O[C@@H](CC(=O)NCC3CCCCC3)CC[C@@H]21	-2.9
C[C@H]1CN([C@@H](C)CO)S(=O)(=O)c2ccc(C#Cc3cccnc3)cc2O[C@@H]1CN(C)C	0.4
CCN1[C@@H]2Cn3c(ccc(-c4ccccc4OC)c3=O)[C@H]1[C@@H](C(=O)NCc1ccccn1)[C@@H]2CO	-0.4
CC(C)NC(=O)N(C)C[C@@H]1Oc2ccc(NS(C)(=O)=O)cc2C(=O)N([C@@H](C)CO)C[C@@H]1C	-4.2
CCCCC(=O)N(C)c1c(C)nc2ccc(C(=O)N(C)CCN(C)C)cn12	-3.6
Cc1noc(C)c1S(=O)(=O)Nc1ccc2c(c1)C(=O)N([C@@H](C)CO)C[C@H](C)[C@@H](CN(C)C(=O)c1ccccc1)OCCCC[C@H](C)O2	-6.7
CC1ON=C(c2cccc3ccccc23)N(C)C1=O (stereo not given)	-0.7
C[C@H](CO)N1C[C@H](C)[C@@H](CN(C)S(C)(=O)=O)OCCCC[C@H](C)Oc2ccc(NC(=O)C3CCCCC3)cc2C1=O	0.6
N#Cc1cccc(-c2ccc([C@@H]3[C@@H](CO)N4CCCCN(C(=O)Nc5cccc(F)c5)C[C@H]34)cc2)c1	4.3
CN(C)C(=O)[C@@H]1[C@@H](CO)[C@@H]2Cn3c(ccc(C4=CCCC4)c3=O)[C@H]1N2CC1CCOCC1	-16.3
CS(=O)(=O)c1ccc(Cl)c(NC(=O)COC(=O)C23CC4CC(CC(C4)C2)C3)c1	-0.4
COCC(=O)Nc1ccc2c(c1)C(=O)N(C)[C@H]1CC[C@@H](CC(=O)NCC(F)(F)F)O[C@H]1CO2	-0.6
C[C@@H]1CN([C@@H](C)CO)C(=O)c2cccc(NC(=O)Nc3ccc4c(c3)OCO4)c2O[C@@H]1CN(C)Cc1ccc(C(F)(F)F)cc1	4.7
C[C@H](CO)N1C[C@H](C)[C@@H](CN(C)C)Oc2ncc(C#Cc3ccccc3F)cc2C1=O	14.6
CCC(CC)C(=O)N(C)c1c(C)nc2c(OCc3ccc(C(F)(F)F)cc3)cccn12	-7.4

Sorted by SMILES length (smallest number first): part of the list above
SMILES	MLL AF4-AF9 inh
CC1ON=C(c2cccc3ccccc23)N(C)C1=O (stereo not given)	-0.7
CCC(CC)C(=O)N(C)c1c(C)nc2c(OCc3ccc(C(F)(F)F)cc3)cccn12	-7.4
CCN1[C@@H]2Cn3c(ccc(-c4ccccc4OC)c3=O)[C@H]1[C@@H](C(=O)NCc1ccccn1)[C@@H]2CO	-0.4
C[C@@H]1CN([C@@H](C)CO)C(=O)c2cccc(NC(=O)Nc3ccc4c(c3)OCO4)c2O[C@@H]1CN(C)Cc1ccc(C(F)(F)F)cc1	4.7

Filtered by structure: those above containing a thiophene ring, fused or not.
SMILES	MLL AF4-AF9 inh
OCCC#Cc1ccc(N2C(c3ccsc3)=Cc3ccc(F)cc3C2c2c[nH]c3ccccc23)cc1 (stereo not given)	1.4
C[C@@H]1CN([C@@H](C)CO)C(=O)c2cc(NC(=O)Cn3cnnn3)ccc2O[C@H]1CN(C)S(=O)(=O)c1cccs1	4.7

The listing continues:
SMILES	MLL AF4-AF9 inh
C[C@H](CO)N1C[C@H](C)[C@@H](CN(C)Cc2ccc(-c3ccccc3)cc2)Oc2ccc(NC(=O)Nc3ccc4c(c3)OCO4)cc2CC1=O	2.0
CCCN1C[C@@H](C)[C@@H](OC)CN(C)C(=O)c2ccc(NC(=O)c3cccc(OC)c3)cc2OC[C@@H]1C	-0.3
O=C(C[C@H]1C[C@H]2c3cc(NC(=O)c4cccnc4)ccc3O[C@H]2[C@H](CO)O1)NC1CCCC1	-1.0
CC(C)C[C@@H](CNCC(=O)[C@H](Cc1c[nH]c2ccccc12)NC(=O)c1[nH]cnc1C(=O)N[C@@H](C)CN)NC(=O)c1nc[nH]c1C(=O)N[C@@H](C)C(=O)O	7.9
C[C@@H]1CN([C@@H](C)CO)C(=O)Cc2cc(NC(=O)NC3CCCCC3)ccc2O[C@@H]1CN(C)S(=O)(=O)c1cccs1	3.0
CCCn1nc(C(=O)Nc2cc(OCC)c(N3CCOCC3)cc2OCC)c2ccccc2c1=O	10.7
C[C@@H]1CN([C@@H](C)CO)S(=O)(=O)c2ccc(-c3ccccc3F)cc2O[C@H]1CN(C)Cc1cccnc1	6.2
Cc1noc(C)c1NC(=O)N(C)C[C@@H]1OCc2ccccc2-c2c(n(C)c3ccccc23)C(=O)N([C@@H](C)CO)C[C@@H]1C	-8.0
Cc1cccc(-c2ccc([C@@H]3[C@H](CO)N4CCCCN(C(=O)c5ccc6c(c5)OCO6)C[C@@H]34)cc2)c1	17.1
C[C@@H]1CCCCO[C@H](CN(C)Cc2ccc(Cl)c(Cl)c2)[C@H](C)CN([C@@H](C)CO)C(=O)c2cc(NC(=O)Cc3ccccc3)ccc2O1	1.3
COc1ccc(S(=O)(=O)N(C)C[C@@H]2OCc3cn(nn3)CCCC(=O)N([C@@H](C)CO)C[C@@H]2C)cc1	-0.4
C[C@@H]1CN([C@H](C)CO)C(=O)c2c(c3ccccc3n2C)-c2ccccc2CO[C@@H]1CN(C)C(=O)[C@H]1CCCN1C	-1.2
C[C@H](CO)N1C[C@H](C)[C@@H](CN(C)C)Oc2cc(C#C[C@@H](C)O)ccc2S1(=O)=O	-1.7
OC[C@@H]1[C@@H](c2ccccc2)C2(CN(CC3CCOCC3)C2)N1Cc1cncnc1	0.9
O=C(N[C@H]1CC[C@@H](CCNS(=O)(=O)c2ccc(Cl)cc2)O[C@H]1CO)c1ccccn1	-0.4
COc1ccc(NS(=O)(=O)c2cccc(C(=O)NCc3ccccc3CN3CCOCC3)c2)cc1	1.6
C[C@H]1CN([C@@H](C)CO)C(=O)Cc2cc(NS(=O)(=O)c3ccccc3)ccc2O[C@@H]1CN(C)C	-7.2
C[C@@H]1CN([C@@H](C)CO)C(=O)Cc2cc(NC(=O)Cc3cn(C)c4ccccc34)ccc2O[C@@H]1CN(C)Cc1ccc(Cl)c(Cl)c1	1.8
C[C@H](CO)N1C[C@H](C)[C@@H](CN(C)CC2CC2)Oc2ccc(NC(=O)Cc3ccccc3)cc2C1=O	-15.0
CC(C)NC(=O)N(C)C[C@@H]1Oc2ccc(NS(=O)(=O)c3ccc(F)cc3)cc2C(=O)N([C@H](C)CO)C[C@@H]1C	-0.5
C[C@H](CO)N1C[C@H](C)[C@@H](CN(C)C(=O)Nc2cccc3ccccc23)Oc2ccc(NS(=O)(=O)c3ccccc3)cc2C1=O	-1.4
CCC(=O)N(C)C[C@H]1Oc2cc(-c3ccc(OC)cc3)ccc2S(=O)(=O)N([C@@H](C)CO)C[C@H]1C	-1.0
C[C@H]1CN([C@@H](C)CO)C(=O)c2cc(NC(=O)c3ccncc3)ccc2O[C@@H]1CN(C)CC1CCCCC1	0.2
CCCCOCCCNC(=O)C[C@@H]1C[C@@]2(C(=O)OCC)CCCC=C2N(Cc2ccc(Cl)cc2Cl)C1=O	-3.5

Screening data deposited in PubChem by Broad Institute.

This is a subset; count on the stated rates, not on these rows.
